RN4220 kill – S. aureus RN4220 growth inhibition; OD600, 16 h; inhibition, % (test concentration not listed); hit rate 0.33% among 330,000;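 active = z-score of -3 or lower and OD600 up to 0.18 on both plates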;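 note: plate controls were untreated cells for no effect and reference antibiotic for full effect; stock transfer was 100 nL into about 80 µL; one replicate is shown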
PrP UTR inh – suppresses PrP 5' UTR mRNA reporter expression; cell-based PrP 5' UTR mRNA reporter, plate reader; inhibition, % (concentration not given with the values); hit rate 0.35% among 340,000;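 active = every replicate at 50% or more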;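 note: 0 = median of the neutral control wells; tested in H4 reporter cells; numbers are from one replicate; inactives centre near -14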
Mtb hypoxia rep – reduces hypoxia-regulated biosensor signal in M. tuberculosis | fluorescence inhibition, % (test concentration not listed) | M. tuberculosis hypoxia-regulated fluorescent reporter, fluorescence | AID 1159583 | hit rate 0.1% among 300,000;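 active = 35 to 45% if threefold the growth effect, above 45% if 1.5-fold the growth effect; inactive = the rest, general growth blockers included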;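 note: wells of about 50 µL received 100 nL stock; 0% = vehicle wells and 100% = reference inhibitor wells; whole bacteria with a GFP reporter of the hypoxia response; strong numbers were not always called active; many hits fall short of the cut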
Autofluor counter – compound fluorescence in toxin protease inhibitor counterscreen; fluorescence intensity (test concentration not listed); compound autofluorescence counterscreen, microsphere flow cytometry; hits give high values; hit rate 3.1% among 360,000;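 active = at least 3 SD above the mean of all compounds, about 16000 in these data; inconclusive = too few beads counted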;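 note: 100 nL of 1 mM stock went into each well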
BJeLR viability – kills HRASV12-expressing BJeLR cells | BJeLR (HRASV12) viability, CellTiter-Glo ATP luminescence, 48 h; reference of the scale not given here | inhibition, % (no concentration beside the values) | hit rate 0.17% among 300,000 | AID 1554;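 active = replicate mean above 50%; inconclusive = above 50% but judged a plate artefact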;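 note: 50 nL library stock added to about 25 µL; numbers are from one replicate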
Sa ugtP lethal – growth inhibition of S. aureus ugtP deletion strain. S. aureus RN4220 ugtP deletion, OD600 growth, 16 h; some inactives read as strong as hits. growth inhibition, % (no concentration beside the values). hit rate 0.54% among 330,000. AID 1259309;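 active = z-score under -3 and OD600 up to 0.15 on both plates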;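 note: plate controls were untreated wells for no effect and antibiotic for full effect; wells of about 80 µL received 100 nL stock; the first replicate is given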
Mtb hypoxia rep growth – second read-out of Mtb hypoxia rep, no call of its own (marks repeat the call); growth inhibition, %; measured here: M. tuberculosis growth (absorbance);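 0% = vehicle and 100% = reference antibiotic; read after six days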
* marks the source's active call; other numbers are inactive results; ? = inconclusive; / = not tested or not shown.

SMILES	RN4220 kill	PrP UTR inh	Mtb hypoxia rep	Mtb hypoxia rep growth	Autofluor counter	BJeLR viability	Sa ugtP lethal
COc1c(Cl)cccc1-c1cn2ccc(C)cc2n1	4.8	-62	11	-2	6082	-5	-10
COc1ccc(C2C(C#N)=C(N)Oc3cc(C)[nH]c(=O)c32)cc1OC (centres undefined)	3.3	-27	-11	-6	4182	-2	2
COc1ccc(C=NNc2cc(C)nc(-n3nc(C)cc3C)n2)c(OC)c1	16	/	-9	9	/	/	-2
O=C(CSc1nnc(Cc2ccccc2)o1)c1ccc(F)cc1	3.9	-6	17	17	3043	4	11
CC(NC(=O)c1ccccc1)C(=O)OCC(=O)c1c(N)n(C)c(=O)n(C)c1=O (centres undefined)	5.7	/	13	1	/	/	7
CCc1nnc(NC(=O)c2cccc(S(=O)(=O)N(C)c3ccccc3)c2)s1	7.2	6	8	6	6616	1	-3
Cc1ccnc(NC(=O)c2cccc3ccccc23)c1	4.9	-18	4	-6	4281	2	9
COc1ccc(NC(=O)Cn2ccc(C(F)(F)F)n2)cc1S(=O)(=O)N1CCOCC1	1.7	-37	8	2	3741	/	1
CCOC(=O)C1(Cc2cccc(OC)c2)CCN(C(C)COC)CC1 (centres undefined)	3.8	-12	14	1	2751	-13	5
NC(=O)c1oc2ccccc2c1NC(=O)c1ccc(F)cc1	-1.2	-9	5	9	6270	-12	12
COc1cccc(-c2noc(C3CCCN(S(=O)(=O)c4cccc(Cl)c4C)C3)n2)c1 (centres undefined)	5.3	-18	5	0	12341	1	-11
Cc1ccc(C)[n+](CC(=O)c2ccc(-c3ccccc3)cc2)c1	3.2	1	8	16	3581	12	-4
COc1ccccc1Nc1nc(Cl)nc(NC(C)(C)C)n1	-0.5	2	3	0	3463	-5	-3
CCN(CC)c1ccc(N=Nc2nn(C)c(C)c2[N+](=O)[O-])cc1	-1.0	-155	1	0	2433	-1	-1
CN(C)CCSc1nnc2sc3ccccc3n12	9.7	-10	10	4	2573	9	-2

Part of the list above in a different format.
| Structure | RN4220 kill | PrP UTR inh | Mtb hypoxia rep | Mtb hypoxia rep growth | Autofluor counter | BJeLR viability | Sa ugtP lethal |
| --- | --- | --- | --- | --- | --- | --- | --- |
| Cc1ccc(C)[n+](CC(=O)c2ccc(-c3ccccc3)cc2)c1 | 3.2 | 1 | 8 | 16 | 3581 | 12 | -4 |
| COc1ccccc1Nc1nc(Cl)nc(NC(C)(C)C)n1 | -0.5 | 2 | 3 | 0 | 3463 | -5 | -3 |
| CCN(CC)c1ccc(N=Nc2nn(C)c(C)c2[N+](=O)[O-])cc1 | -1.0 | -155 | 1 | 0 | 2433 | -1 | -1 |
| CN(C)CCSc1nnc2sc3ccccc3n12 | 9.7 | -10 | 10 | 4 | 2573 | 9 | -2 |

Continued.
SMILES	RN4220 kill	PrP UTR inh	Mtb hypoxia rep	Mtb hypoxia rep growth	Autofluor counter	BJeLR viability	Sa ugtP lethal
CCCCn1c(SCC(=O)c2ccc(OC)c(OC)c2)nc2cc(S(N)(=O)=O)ccc21	4.6	-23	7	9	8922	1	-1
COCC(=O)N1CCc2ccc(NC(=O)c3ccc(C(F)(F)F)cc3)cc2C1	/	-26	/	/	3862	4	/
O=C(NCc1n[nH]c(=S)n1-c1cccc(Cl)c1)c1ccc(S(=O)(=O)N2CCCC2)cc1	6.0	-16	2	2	11177	-3	6
CCn1c(O)c(C=NCc2cccs2)c(=O)n(CC)c1=S	-0.3	-17	/	/	4706	3	3
COc1ccc(NS(=O)(=O)c2cccc(NC(=O)NC3CCCCC3)c2)cc1	3.5	-23	1	3	8429	-9	18
CCOC(=O)Cc1nn(Cc2nc(-c3ccc(C#N)cc3)cs2)c(=O)c2ccccc12	-4.0	-10	0	15	6831	-12	-3
Cc1ccc(NN=C(C#N)C(N)=S)cc1C	1.5	/	7	13	/	/	-12
COc1ccc(C(=O)Nc2sc(C)c(-c3ccccc3)c2C#N)cc1OC	1.0	-32	/	/	3764	6	-3
CCOC(=O)C1(CC2CC2)CCN(Cc2ccc3cccc(F)c3n2)CC1	6.9	-15	13	16	5235	-1	1
CCOC(=O)c1cc(OC(=O)c2ccccc2OC)n(-c2ccccc2)n1	0.0	-63	8	4	20755*	-6	3
O=C(Cn1cnc2c(nnn2Cc2ccc(Cl)cc2)c1=O)N1CCCc2ccccc21	-2.5	-20	2	6	9631	-14	28
CN(Cc1cccc(C(F)(F)F)c1)C(=O)C1CCC(=O)N(CC2CCCCC2)C1 (centres undefined)	-1.3	-9	-7	-14	5757	7	-5
Cc1c(C(=O)NC(=S)Nc2ccc(NC(=O)c3cccs3)cc2)oc2ccccc12	2.5	-29	1	0	4589	8	9
Cc1cc(C)nc(SCC(=O)c2ccc(O)cc2O)n1	3.2	-30	1	-4	6445	-5	-2
Cc1cccc(C(=O)NNC(=O)c2ccc(F)cc2)c1	2.1	-41	5	4	2170	5	1
CCN(CC)CCCNC(=O)c1ccc(CS(=O)(=O)c2ccccc2OC)o1	-1.9	-10	-5	-3	3273	-3	-8
CC1Cc2ccccc2N1S(=O)(=O)c1cccc(C(=O)NCc2ccco2)c1 (centres undefined)	2.8	-9	4	-7	3891	/	-3
O=C(Oc1ccc2ccc(=O)oc2c1)N1CCOCC1	-23	-38	0	5	2351	-12	-4
COc1ccc(S(=O)(=O)N2CCCCC2)cc1	3.6	-1	8	2	2361	-2	6
O=C(CN1CCN(c2ccccc2O)CC1)NC(=O)NC1CCCC1	12	-11	10	-2	3439	5	5
C(=N\N(c1ccccc1)c1ccccc1)/c1ccccn1	/	6	/	/	2970	-12	/
CCCCCc1cc(=O)oc2c(C(CCN3CCCC3)c3ccc(N(C)C)cc3)c(OC)cc(OC)c12 (centres undefined)	-5.1	-2	18	28	4358	11	1
COc1cc(C(=O)NCCCOC(C)C)ccc1OC1CCN(C(C)=O)CC1	4.1	-27	-1	9	3695	1	5
COc1ccc(NC(=O)CC2(CC(=O)N3CCOCC3)CCCC2)cc1Cl	-2.4	-27	16	7	3772	/	-4
Cc1ccc(-c2cc(-c3ccccc3)c(C#N)c(N)n2)o1	6.5	-26	8	9	4663	-4	-1
O=C(NCc1cccs1)c1cccn2c(=O)c3sccc3nc12	2.7	-15	6	-4	4244	5	2
Cc1cccc(-n2c(C)nc3ccc(Cl)cc3c2=O)c1	3.7	-7	12	8	/	-4	7
CCC(C)N1C(=O)N(C)C2NC(=O)NC21 (centres undefined)	3.0	-14	2	7	2592	-12	-2
COc1ccc(NS(=O)(=O)c2cc(OC)ccc2OC)cc1	2.7	-11	-2	-2	?	-3	9
CCOC(=O)C1(CCCc2ccccc2)CCN(Cc2cnn(C)c2)CC1	1.0	-9	2	4	4369	1	2

Another view of part of the listing above.
molecule | RN4220 kill | PrP UTR inh | Mtb hypoxia rep | Mtb hypoxia rep growth | Autofluor counter | BJeLR viability | Sa ugtP lethal
O=C(Oc1ccc2ccc(=O)oc2c1)N1CCOCC1 | -23 | -38 | 0 | 5 | 2351 | -12 | -4
COc1ccc(S(=O)(=O)N2CCCCC2)cc1 | 3.6 | -1 | 8 | 2 | 2361 | -2 | 6

Continued.
SMILES	RN4220 kill	PrP UTR inh	Mtb hypoxia rep	Mtb hypoxia rep growth	Autofluor counter	BJeLR viability	Sa ugtP lethal
Cn1nc(C(=O)NNC(=O)c2cccc(Cl)c2)ccc1=O	5.7	-15	10	8	4106	/	4
COc1ccc(OC)c(C=NNC(=O)CSc2nnc(CCCc3ccc(OC)c(C)c3)o2)c1	4.4	/	1	10	/	/	-7
COc1cccc(OC)c1C(=O)Nc1ccccc1Sc1ccccc1	7.7	/	7	4	/	-1	23
N=c1c2c3c(sc2ncn1CCN1CCOCC1)CCCC3	2.4	-31	2	2	4387	-1	-1
COC1CCCN(C(=O)c2cccc(OC3CCN(S(=O)(=O)N(C)C)CC3)c2)C1 (centres undefined)	2.4	-23	9	1	6270	3	3
CCN(C(=O)c1cc([N+](=O)[O-])ccc1NCc1cccnc1)c1ccccc1	1.3	-7	11	7	3701	-6	-1
COC(=O)C1(C(F)(F)F)N=C2Sc3ccccc3N2C(N2CCOCC2)=N1 (centres undefined)	7.4	-17	3	4	5564	-2	5
COc1ccc(-c2nn(-c3ccccc3)cc2/C=C/C(=O)NCCCn2ccnc2)cc1OC	-0.8	-18	1	-2	4939	-3	-11
C=C(C)c1cccc(C(C)(C)NC(=O)Nc2cc(C)ccc2OC)c1	2.1	-23	6	2	15665	-6	8
O=C(N/N=C/c1ccco1)c1ccc(NC(=O)c2ccc(Cl)cc2)cc1	/	-22	/	/	3086	1	/
Cc1nn(C)c(Cl)c1C(=O)NCC(=O)Nc1ccc(C(C)C)cc1	11	-18	10	10	3108	2	-1
CCOc1ccc(N=C2NC(=O)S/C2=C\c2ccc(Cl)cc2)cc1	1.4	-17	0	2	3243	5	6
Cc1onc(-c2c(F)cccc2Cl)c1C(=O)OCC(=O)c1c[nH]c2ccccc12	-4.1	-41	-5	-4	6503	10	-5
COc1ccc(CCNC(=O)Cn2cccc2C(=O)c2ccccc2C)cc1OC	5.2	-5	8	0	2858	4	7
Cc1noc(C)c1C(=O)OCC(=O)Nc1ncc(C(F)(F)F)cc1Cl	15	-29	4	5	3559	/	-1
COC(=O)N1CCc2c(sc(NC(=O)C3COc4ccccc4O3)c2C(N)=O)C1 (centres undefined)	2.1	-43	-7	-2	?	7	0
Cc1ccccc1OCC(=O)NNC(=O)C1CCN(c2ncnc3sc(C)c(C)c23)CC1	-2.7	-27	2	14	?	0	5
Cc1ccc(C2=NS(=O)(=O)N(C)C(C(=O)NCc3ccc(F)cc3)=C2)cc1	5.7	-28	4	-3	5878	0	1
COc1ccc(OC(C)C(=O)NCC2CCCO2)cc1 (centres undefined)	3.7	-5	7	-1	6073	2	1
COCCn1c(=O)[nH]c2cc(C(=O)Nc3cccc(C(C)=O)c3)ccc2c1=O	-0.5	-26	3	-4	3577	3	6
CCCn1c2ccccc2c2cnn(CC(=O)NCCCN3CCCCC3)c(=O)c21	0.8	-29	-2	4	4528	-4	-1
Cc1ccc2c(c1)C1CN(C)CCC1N2C(=O)/C(C#N)=C/c1ccc2c(c1)OCO2 (centres undefined)	9.1	-12	14	8	4187	1	3
NC(=NCCc1ccccc1)NS(=O)(=O)c1cccs1	1.3	-3	-3	8	2229	3	1
CC(=Cc1ccccc1)C=C1SC(=S)N(CCCC(=O)Nc2ccc(C(=O)O)cc2)C1=O	48	/	9	10	3770	/	66
Cn1c(=O)c(C(=O)NCCO)c(O)c2ccccc21	2.2	-10	/	/	4175	-8	-4
CCOc1ccc(NC(=O)C(=O)N/N=C/c2cccnc2)cc1	/	-21	/	/	5959	-1	/
COc1ccccc1NS(=O)(=O)c1cccc(C(=O)N2CCCCCC2)c1	4.2	-8	3	-5	/	/	-2
Cc1ccc(C(C(=O)NCc2ccco2)N(C(=O)Cc2cccs2)c2cccnc2)cc1 (centres undefined)	0.7	-24	10	1	4006	7	6
O=S(=O)(c1ccccc1)N1CCN(Cc2ccccc2)c2ccccc21	4.1	-12	-1	-2	2900	/	-2
CCOc1ccc(-c2ccc(SCC)nn2)cc1	8.0	3	12	7	4394	/	4
Cc1ccc(NC(=S)c2nc3ccccc3s2)cc1	-4.9	4	/	/	2229	-12	-2
Cc1ccc(CCP(=O)(O)CN2CCOCC2)cn1	-4.5	-32	-2	-4	5291	-7	1
COc1ccc(C(=O)N(c2ccccc2)C2C=CS(=O)(=O)C2)cc1 (centres undefined)	5.3	-1	16	7	6184	9	7
Cc1cnc(NC(=O)C2(c3ccccc3)CC2)s1	4.5	-15	-1	0	4551	8	5
COc1ccc(S(=O)(=O)CCC(=O)N2CCN(c3ccc(C(C)=O)cc3)CC2)cc1	2.1	-24	14	18	4940	-1	2
CC1(C)OC(=O)N(CCc2ccccc2)C1(C)O (centres undefined)	2.5	-21	4	9	25029*	-5	6
CCCCCCSC1=C(C#N)C(=O)NC2(CCCCC2)S1	1.7	-26	1	7	4537	3	-24
N#Cc1ccc(-c2ccc(OCC3CNC(=O)O3)cc2)cc1 (centres undefined)	17	-44	3	0	3805	3	5
CC#CC[N+](C)(C)CCCCCC	3.4	1	-2	1	?	-5	-3
COc1ccccc1N1CCN(C(CNC(=O)C2CCCCC2)c2cccnc2)CC1 (centres undefined)	-14	-3	5	10	5068	1	-5
COc1ccc(CNC(=O)C2CCN(S(=O)(=O)c3cccc4nsnc34)CC2)cc1	-0.8	-20	-3	9	5743	-4	-3
COC(=O)c1ccc(CN(C)S(=O)(=O)c2ccc(C)cc2)o1	5.0	-21	8	5	5804	-1	12
CCC(=O)NC(c1ccco1)c1cc(Cl)c2cccnc2c1OC (centres undefined)	3.4	-24	7	7	3518	/	3
